BJeLR viab HTS: compounds reducing viability of BJeLR cells; BJeLR fibroblasts viability, CellTiterGlo ATP luminescence, 48 h; HRASV12, hTERT and SV40 LT/ST transformed; viability loss activity score, % (concentration not given with the values); 30,000 compounds, 0.64% hits; AID 2275; in the data active means viability loss activity score above about 50%; about a fifth of its hits are not listed in these tables;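 further: higher score means fewer live cells and less ATP luminescence; stock transfer was 50 or 100 nL into about 30 µL; 0% = vehicle wells and 100% = a reference killing control; one replicate is shown; the record names a cut of 85%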
A1 inh: inhibitors of A1; caspase activation, % (no concentration beside the values); MEF A1-2A-BIM cells, caspase-Glo luminescence, 3 h; percent of clofoctol signal, DMSO as zero; 21,000 compounds, 0.51% hits; AID 2241;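 active means most replicate scores above 10, or exactly half above 10 with mean activity above 10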;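 further: effector caspase 3 and 7 activity cleaving a DEVD luciferin substrate; 50 nL library stock added to about 30 µL; numbers are from one replicate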
* = called active by the depositor; x = not tested or not shown. Not all compounds are listed; the hit share may differ from the screen's.

smiles	BJeLR viab HTS	A1 inh
COc1ccc(S(=O)(=O)N(C)C[C@H]2Oc3c(cccc3N(C)C)C(=O)N([C@@H](C)CO)C[C@H]2C)cc1	-2.7	x
COc1ccc(NC(=O)N(C)C[C@H]2Oc3ccc(NC(=O)CCCCCC(=O)Nc4ccccc4N)cc3C(=O)N([C@@H](C)CO)C[C@H]2C)cc1	0.7	x
CC1(CCOC2OC(CO)C(O)C(O)C2O)CCC2C(=CCC3C(C)(C(=O)O)CCCC23C)C1 (centres undefined)	-2.6	0.0
Cc1ccc(S(=O)(=O)N(C)C[C@@H]2Oc3c(NC(=O)NC4CCCCC4)cccc3C(=O)N([C@@H](C)CO)C[C@H]2C)cc1	-3.5	x
Cc1ccc(CSc2nc3ccccc3s2)cc1	3.4	-5.8
Cc1ccc(C2CC(=O)n3nc(N)nc3N2)cc1 (centres undefined)	1.1	x
C[C@@H]1CN([C@H](C)CO)C(=O)c2cc(NC(=O)Nc3ccccc3)ccc2O[C@@H]1CN(C)Cc1ccccc1	-0.6	-0.6
Cc1ccc(NC(=O)CSc2nc3c(c(=O)n2Cc2ccccc2)SCC3)cc1	0.6	-0.1
C[C@H]1CN([C@@H](C)CO)C(=O)c2cc(NS(=O)(=O)c3ccc(F)cc3)ccc2O[C@@H]1CN(C)Cc1ccc(Oc2ccccc2)cc1	-4.4	0.1
C[C@H](CO)N1C[C@H](C)[C@@H](CN(C)C(=O)NC2CCCCC2)Oc2ccc(NC(=O)Nc3ccc(C(F)(F)F)cc3)cc2C1=O	1.4	-0.5
C[C@H]1CN([C@@H](C)CO)C(=O)c2cccc(NC(=O)c3nc4ccccc4s3)c2O[C@H]1CN(C)Cc1ccc(C(=O)O)cc1	9.6	x
COC(=O)C1=C(O)/C(=C/c2ccc(O)cc2)SC1=Nc1ccccc1	-4.0	2.6

A second format for some results above.
Every second line gives: BJeLR viab HTS, A1 inh
COc1ccc(S(=O)(=O)N(C)C[C@H]2Oc3c(cccc3N(C)C)C(=O)N([C@@H](C)CO)C[C@H]2C)cc1
    -2.7, x
COc1ccc(NC(=O)N(C)C[C@H]2Oc3ccc(NC(=O)CCCCCC(=O)Nc4ccccc4N)cc3C(=O)N([C@@H](C)CO)C[C@H]2C)cc1
    0.7, x
CC1(CCOC2OC(CO)C(O)C(O)C2O)CCC2C(=CCC3C(C)(C(=O)O)CCCC23C)C1 (centres undefined)
    -2.6, 0.0
Cc1ccc(S(=O)(=O)N(C)C[C@@H]2Oc3c(NC(=O)NC4CCCCC4)cccc3C(=O)N([C@@H](C)CO)C[C@H]2C)cc1
    -3.5, x
Cc1ccc(CSc2nc3ccccc3s2)cc1
    3.4, -5.8

Continued:
smiles	BJeLR viab HTS	A1 inh
C[C@H](CO)N1C[C@H](C)[C@@H](CN(C)Cc2ccc(C(=O)O)cc2)Oc2ccc(NS(C)(=O)=O)cc2C1=O	3.5	-0.5
O=C(Oc1cccc2ccccc12)c1ccccc1	3.3	1.5
COc1ccc(CN(C)C[C@@H]2Oc3c(NC(=O)Nc4c(C)noc4C)cccc3C(=O)N([C@H](C)CO)C[C@H]2C)cc1	-3.9	x
C[C@@H]1CN([C@@H](C)CO)C(=O)c2cccc(NC(=O)c3nc4ccccc4s3)c2O[C@@H]1CN(C)S(C)(=O)=O	-4.2	x
Nc1ncnc2c1nc(SCC(=O)O)n2Cc1ccccc1	-5.7	x
C[C@H](CO)N1C[C@H](C)[C@@H](CN(C)Cc2ccncc2)Oc2ccc(NC(=O)Cn3cnnn3)cc2C1=O	-3.4	0.1
COc1ccc(C2CC(c3ccc(Br)cc3)=NN2C(=O)CCN2CCOCC2)cc1 (centres undefined)	4.2	1.2
Cc1ccc(S(=O)(=O)N(C(=O)C2CCCCC2)c2ccc3oc(=O)sc3c2)c(C)c1	-0.3	x
O=C(CCn1c(=O)oc2ccccc21)NCc1ccco1	0.1	x
COc1ccc(S(=O)(=O)Nc2ccc3c(c2)C(=O)N([C@@H](C)CO)C[C@H](C)[C@@H](CN(C)CC2CCCCC2)O3)cc1	1.0	1.1
C[C@@H]1CN([C@@H](C)CO)C(=O)c2cccc(NC(=O)C3CCCCC3)c2O[C@H]1CN(C)Cc1ccc(C(=O)O)cc1	1.1	x
CCOC(=O)c1cnc2ccccc2c1NCCc1ccccc1	-3.1	-0.9
C[C@@H]1CN([C@@H](C)CO)C(=O)c2cc(NC(=O)NC3CCCCC3)ccc2O[C@H]1CN(C)Cc1ccc(C(=O)Nc2ccccc2N)cc1	4.5	x
C[C@H](CO)N1C[C@H](C)[C@H](CN(C)Cc2ccc(C(=O)Nc3ccccc3N)cc2)Oc2ccc(NS(=O)(=O)c3cn(C)cn3)cc2C1=O	4.1	x
C/C=C/C=C/C(=O)O[C@@H]1C=C(CO)[C@](O)(CO)[C@@]2(C)CCCC(C)(C)[C@H]12	-2.4	0.9
C[C@H](CO)N1C[C@H](C)[C@@H](CN(C)Cc2ccc(Cl)c(Cl)c2)Oc2ccc(NS(=O)(=O)c3cccs3)cc2C1=O	0.4	-0.5
C[C@H](CO)N1C[C@H](C)[C@@H](CN(C)Cc2ccccc2)Oc2c(NC(=O)C3CCOCC3)cccc2C1=O	1.0	x
S=C1NCN(CCc2ccccc2)CN1	-4.8	0.5
CCOC(=O)CC1=NC(=O)CS1	-2.6	0.3
COc1ccc(S(=O)(=O)N(C)C[C@H]2Oc3ccc(NC(=O)Nc4cccc5ccccc45)cc3C(=O)N([C@@H](C)CO)C[C@H]2C)cc1	-2.9	0.6
CCc1ccc(NC(=S)Nc2ccccc2C(C)C)cc1	5.7	1.2
C[C@H](CO)N1C[C@H](C)[C@H](CN(C)Cc2ccccc2)Oc2ccc(NC(=O)C3CC3)cc2C1=O	-0.6	-0.5
O=C(O)CC(CC(=O)Nc1cc(C(F)(F)F)cc(C(F)(F)F)c1)c1ccc(Cl)cc1Cl (centres undefined)	-5.7	0.5
COC(=O)c1sc(C(F)(F)F)c(-c2ccccc2)c1S(=O)(=O)N1CCOCC1	0.3	0.7
C[C@@H]1CN([C@@H](C)CO)C(=O)c2cccc(NC(=O)Nc3ccc4c(c3)OCO4)c2O[C@@H]1CN(C)Cc1ccc(Oc2ccccc2)cc1	-4.6	x
COc1ccc(S(=O)(=O)Nc2cccc3c2O[C@H](CN(C)S(=O)(=O)c2ccc(OC)cc2)[C@@H](C)CN([C@H](C)CO)C3=O)cc1	-3.3	x
O=C(Cn1c2ccccc2c2cn[nH]c(=O)c21)NCc1cccnc1	2.9	0.4
NC(=O)CN1C(=O)CCSc2ccccc21	-1.4	0.6
CCN(CCS(=O)(=O)c1ccc(C)cc1)C(=O)c1ccc(-c2cc(C(F)(F)F)nn2C)s1	-3.3	-0.1
COc1ccc(S(=O)(=O)Nc2cccc3c2O[C@@H](CN(C)Cc2ccccc2)[C@H](C)CN([C@H](C)CO)C3=O)cc1	1.6	x
COc1cc(C2OCC3(OC4OC(CO)C(O)C(O)C4O)C(c4ccc(O)c(OC)c4)OCC23)ccc1O (centres undefined)	4.6	0.0
Cc1ccc(S(=O)(=O)N(C)C[C@H]2Oc3ccc(NC(=O)CCN4CCOCC4)cc3C(=O)N([C@@H](C)CO)C[C@H]2C)cc1	-1.3	-0.3
N#C/C(=C\Nc1ccc(C(N)=O)cc1)c1nc(-c2ccccc2)cs1	-0.2	0.6
COc1ccc(S(=O)(=O)N(C)C[C@@H]2Oc3ccc(NC(=O)CCCN(C)C)cc3C(=O)N([C@@H](C)CO)C[C@H]2C)cc1	-0.6	-0.1
Cc1noc(C)c1S(=O)(=O)Nc1ccc2c(c1)C(=O)N([C@@H](C)CO)C[C@H](C)[C@H](CN(C)Cc1ccc(Oc3ccccc3)cc1)O2	-2.1	-0.5
C[C@H]1CN([C@@H](C)CO)C(=O)c2cccc(NS(=O)(=O)c3ccc(Cl)cc3)c2O[C@@H]1CN(C)Cc1ccc(Oc2ccccc2)cc1	-6.3	x
CC(C)c1ccc(NC(=O)c2ccc3snnc3c2)cc1	2.2	8.9
N#Cc1ccc(NC(=O)Nc2ccccc2)cc1	18	x
NNC(=S)NCc1ccc(F)cc1	-9.9	0.5
Cc1noc(C)c1S(=O)(=O)Nc1ccc2c(c1)C(=O)N([C@H](C)CO)C[C@@H](C)[C@H](CN(C)S(=O)(=O)c1cn(C)cn1)O2	-0.5	-0.6
Cn1c(SCc2ccc(F)cc2)nc2ccc(C(=O)NCCc3ccc(Cl)cc3)cc21	-0.1	-0.3
O=C(c1ccc(Cl)cc1)c1oc2ccccc2c1-c1cnn(-c2ccccc2)c1	4.6	-1.0
Cc1cccc(C)c1Nc1nc2c(C)cc(C)c(C)c2s1	-0.4	0.7
COCCN1C(=O)/C(=C2/C(=O)N(OC)c3ccccc32)SC1=S	-2.5	-0.1
CC1=Nc2cc(C(=O)O)ccc2Sc2c(C)ccc(C)c21	-1.2	2.0
COc1cccc(N2CCN(C(=O)c3ccc(/C=C4\Oc5ccccc5N(C)C4=O)cc3)CC2)c1	-3.5	x
C[C@H](CO)N1C[C@H](C)[C@H](CN(C)S(=O)(=O)c2ccccc2)Oc2c(cccc2N(C)C)C1=O	-7.8	x
CCCn1c(=S)[nH]c2cc(C(=O)NCc3ccccc3)ccc2c1=O	-1.6	-0.3
CCOc1ccc2c(c1)sc(=NC(=O)CCOc1ccccc1)n2C	-5.4	0.0
COc1ccc(C(=O)Cn2c(=O)c(CCC(=O)O)nn3c4ccccc4nc23)cc1OC	2.2	x
CC1CCC/C=C/C(=O)c2c(O)cc(O)cc2CC(=O)O1 (centres undefined)	4.3	-0.2
Cc1nc2c(C(=O)NC(C)C)cnn2c(C)c1Cc1c(F)cccc1Cl	6.0	-1.4
Cc1noc(C)c1S(=O)(=O)Nc1cccc2c1O[C@@H](CN(C)C(=O)NC1CCCCC1)[C@@H](C)CN([C@H](C)CO)C2=O	0.3	x
O=C(COC(=O)C1CC(O)CN1C(=O)Oc1ccccc1)c1ccc(-c2ccccc2)cc1 (centres undefined)	0.1	-0.9
C[C@H](CO)N1C[C@H](C)[C@H](CN(C)C(=O)Nc2ccc3c(c2)OCO3)Oc2c(NS(=O)(=O)c3ccc(F)cc3)cccc2C1=O	0.8	x
COc1ccc(Cn2c(SCc3cccc(C(F)(F)F)c3)nc3ccncc32)cc1	-5.3	-0.5
CC1(c2ccc3noc(-c4ccccc4)c3c2)OCCO1	3.4	-0.5
Fc1ccc(-c2csc(N3CCN(C/C=C\c4ccccc4)CC3)n2)cc1	-3.8	-0.5
COc1ccc(C(=O)CC(C(=O)c2ccccc2)c2ccccc2)cc1 (centres undefined)	7.8	x
C[C@@H]1CN([C@H](C)CO)C(=O)c2cc(NC(=O)C3CC3)ccc2O[C@@H]1CN(C)Cc1ccc(Cl)c(Cl)c1	3.1	0.7

Other structures.
smiles	BJeLR viab HTS	A1 inh
Cc1cccc(CSc2nc3ccncc3n2CC(=O)N2CCCC2)c1	0.3	x
O=C(O)c1cc2cc(Cl)ccc2oc1=O	-2.9	-0.2
CC1(C)CC(=O)C2=C(C1)NCN(Cc1ccc3c(c1)OCO3)C2	-2.2	0.0
CN(C)S(=O)(=O)c1ccc2c(c1)c(=O)c(C(=O)NCc1ccccc1)cn2C	1.8	x
Cc1c(Cl)cccc1NC(=O)c1ccc(N2C(=O)c3ccccc3C2=O)cc1	1.1	0.9
Cc1ccccc1CSC(SCc1ccccc1C)=C(C#N)C(=O)NCc1ccco1	3.8	1.1
C[C@@H]1CN([C@H](C)CO)C(=O)c2cc(NC(=O)Nc3cccc4ccccc34)ccc2O[C@H]1CN(C)C(=O)NC1CCCCC1	1.7	-0.7
COc1ccc(CNCC2(c3ccccc3)CCCC2)cc1	2.0	-0.1
COc1ccc(NC(=O)Nc2cccc3c2O[C@@H](CN(C)Cc2ccc(C(F)(F)F)cc2)[C@H](C)CN([C@H](C)CO)C3=O)cc1	-4.2	x
Cc1ccc(S(=O)(=O)Nc2ccc3c(c2)C(=O)N([C@@H](C)CO)C[C@@H](C)[C@@H](CN(C)Cc2ccc(Cl)c(Cl)c2)O3)cc1	-0.6	0.7
C=CCOc1cc(C)nc(N2CCOCC2)n1	2.7	0.0
CC(C)(C)C1=CC(=Nc2ccccc2N)C=C(C(C)(C)C)C1O (centres undefined)	-0.5	x
O=C(O)C1CC=CCC1C(=O)Nc1ccc(Cc2ccncc2)cc1 (centres undefined)	-5.1	0.0
O=C(c1ccco1)N1CCN(c2ccc(C(F)(F)F)cn2)CC1	-1.6	-1.5
Cc1c(-c2ccccc2)[n+](=O)c(-c2ccc(Br)cc2)c(C)n1[O-]	-2.3	-0.6
COC(=O)C1=C(C)NC2=C(C(=O)c3ccccc32)C1c1ccc(OC)cc1 (centres undefined)	-2.3	x
C[C@H]1CN([C@@H](C)CO)C(=O)c2cc(NC(=O)C3CC3)ccc2O[C@H]1CN(C)S(=O)(=O)c1ccccc1	0.0	1.2
CCn1c2ccccc2c2cc(CNCCc3ccc(Cl)cc3)ccc21	-1.9	0.7
CC(=O)NCCc1nc2ccccc2n1CCOc1ccccc1	-0.5	-0.6
COc1ccc(CCN2C(=O)/C(=C/C3CC=CCC3)SC2=S)cc1OC (centres undefined)	2.4	x
C[C@@H]1CN([C@H](C)CO)C(=O)c2cc(NC(=O)C3CCCCC3)ccc2O[C@@H]1CN(C)Cc1ccc(Oc2ccccc2)cc1	2.4	2.5
O=C(O)CCCN1C(=O)c2cccc3cccc(c23)C1=O	0.1	-0.2
